Autofluor counter – compound fluorescence in toxin protease inhibitor counterscreen; actives 3.1% (n = 360,000); compound autofluorescence counterscreen, microsphere flow cytometry; active compounds read high; fluorescence intensity (no concentration beside the values); AID 624483;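 active means at least 3 SD above the mean of all compounds, about 16000 in these data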;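 further: 100 nL of 1 mM stock went into each well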
BJeLR viability – kills HRASV12-expressing BJeLR cells; actives 0.17% (n = 300,000); inhibition, % (test concentration not listed); BJeLR (HRASV12) viability, CellTiter-Glo ATP luminescence, 48 h; reference of the scale not given here;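 active means replicate mean above 50%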;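 further: 50 nL library stock added to about 25 µL; numbers are from one replicate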
RN4220 kill – kills Staphylococcus aureus RN4220. inhibition, % (no concentration beside the values). actives 0.33% (n = 330,000). S. aureus RN4220 growth, OD600, 16 h;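 active means z-score of -3 or lower and OD600 up to 0.18 on both plates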;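 further: plate controls were untreated cells for no effect and reference antibiotic for full effect; stock transfer was 100 nL into about 80 µL; one replicate is shown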
PrP UTR inh – suppresses PrP 5' UTR mRNA reporter expression; actives 0.35% (n = 340,000); cell-based PrP 5' UTR mRNA reporter, plate reader; inhibition, % (no concentration beside the values); AID 488862;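 active means every replicate at 50% or more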;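 further: 0 = median of the neutral control wells; tested in H4 reporter cells; numbers are from one replicate; inactives centre near -14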
ugtP null kill – growth inhibition of S. aureus ugtP deletion strain; growth inhibition, % (concentration not given with the values); AID 1259309; actives 0.54% (n = 330,000); S. aureus RN4220 ugtP deletion, OD600 growth, 16 h; some inactives read as strong as hits;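 active means z-score under -3 and OD600 up to 0.15 on both plates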;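 further: plate controls were untreated wells for no effect and antibiotic for full effect; wells of about 80 µL received 100 nL stock; the first replicate is given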
Mtb hypoxia rep – Mtb hypoxia fluorescent reporter inhibition; fluorescence inhibition, % (no concentration beside the values); actives 0.1% (n = 300,000); AID 1159583; M. tuberculosis hypoxia-regulated fluorescent reporter, fluorescence;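 active means 35 to 45% if threefold the growth effect, above 45% if 1.5-fold the growth effect; inactive means the rest, general growth blockers included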;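 further: wells of about 50 µL received 100 nL stock; 0% = vehicle wells and 100% = reference inhibitor wells; whole bacteria with a GFP reporter of the hypoxia response; strong numbers were not always called active; many hits fall short of the cut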
Mtb hypoxia rep growth – second read-out of Mtb hypoxia rep, no call of its own (marks repeat the call); growth inhibition, %; measured here: M. tuberculosis growth (absorbance);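 0% = vehicle and 100% = reference antibiotic; read after six days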
Starred values were filed as active, the others as inactive. Compounds were not picked by outcome; overall some 4% were active at least once.

Results for CCCCN(C(=O)c1ccc(S(=O)(=O)N2CCC(C)CC2)cc1)C1CCS(=O)(=O)C1 (configuration not stated) ?
BJeLR viability: 7; RN4220 kill: 1.7; PrP UTR inh: -5; ugtP null kill: 2; Mtb hypoxia rep: 1; Mtb hypoxia rep growth: 4

How did CN(C)CCNC(=S)Nc1ccc(Cl)cc1Cl do in these assays?
Autofluor counter: 2648; BJeLR viability: 1; RN4220 kill: 2.3; PrP UTR inh: -21; ugtP null kill: 2; Mtb hypoxia rep: 7; Mtb hypoxia rep growth: 7

How did O=C(c1cc2ccccc2s1)N1CCN(c2ccccn2)CC1 do in these assays?
Autofluor counter: 5839; BJeLR viability: 10; RN4220 kill: 1.2; PrP UTR inh: -5; ugtP null kill: -2; Mtb hypoxia rep: 3; Mtb hypoxia rep growth: 4

How did NS(=O)(=O)c1cccc(NC(=O)CN2CCN(Cc3ccc4c(c3)OCO4)CC2)c1 do in these assays?
Autofluor counter: 2203; BJeLR viability: -2; RN4220 kill: 4.3; PrP UTR inh: -8; ugtP null kill: 8; Mtb hypoxia rep: 0; Mtb hypoxia rep growth: 4

What do the screens show for `COc1cc(/C=C/C(=O)O)cc(S(=O)(=O)N2CCCc3ccccc32)c1OC`?
Autofluor counter: 4506; BJeLR viability: -4; RN4220 kill: 4.6; PrP UTR inh: -5; ugtP null kill: 8; Mtb hypoxia rep: 11; Mtb hypoxia rep growth: 17

What do the screens show for `CCOc1ccc(-n2nc3cc(C)c(N)cc3n2)cc1`?
Autofluor counter: 3136; BJeLR viability: -3; RN4220 kill: 0.5; PrP UTR inh: -15; ugtP null kill: 5; Mtb hypoxia rep: 10; Mtb hypoxia rep growth: 4

How did CCOc1ccc(/C=C2\SC(=S)N(CCC(=O)Nc3ccccc3C(=O)O)C2=O)cc1 do in these assays?
Autofluor counter: 3792; BJeLR viability: -1; RN4220 kill: 18; PrP UTR inh: -12; ugtP null kill: 12; Mtb hypoxia rep: 2; Mtb hypoxia rep growth: -2

Results for COc1ccccc1C(=O)Nc1ccccc1SC ?
Autofluor counter: 8519; BJeLR viability: 6; RN4220 kill: 4.1; PrP UTR inh: -1; ugtP null kill: 0; Mtb hypoxia rep: 12; Mtb hypoxia rep growth: 4

How did COc1ccc(NC(=O)CC(C)c2ccccc2)cc1S(=O)(=O)N1CCOCC1 (configuration not stated) do in these assays?
Autofluor counter: 9144; RN4220 kill: 5.7; PrP UTR inh: -30; ugtP null kill: 8; Mtb hypoxia rep: 13; Mtb hypoxia rep growth: 12

Results for NC(=O)[C@@H]1CC2(CC(c3cccc(NC(=O)CC(c4ccccc4)c4ccccc4)c3)=NO2)CN1C(=O)COc1ccc(Cl)cc1 (some centres not stated) ?
Autofluor counter: 3000; BJeLR viability: -8; PrP UTR inh: -21

How did CC(C)NC(=O)C1CC(=O)N(C(C)c2ccccc2)C1 (configuration not stated) do in these assays?
Autofluor counter: 11393; BJeLR viability: 1; RN4220 kill: 3.8; PrP UTR inh: -27; ugtP null kill: 6; Mtb hypoxia rep: 7; Mtb hypoxia rep growth: 8

Results for COc1cccc2cc(CC(=O)c3ccc(C)cc3C)c(=O)oc12 ?
Autofluor counter: 3473; BJeLR viability: 7; RN4220 kill: 21; PrP UTR inh: -61; ugtP null kill: 8; Mtb hypoxia rep: 10; Mtb hypoxia rep growth: 11

Results for O=C(CCNC(=O)c1ccccc1Cl)Nc1nc(-c2ccc3ccccc3c2)cs1 ?
Autofluor counter: 2487; BJeLR viability: 5; RN4220 kill: -0.2; PrP UTR inh: 24; ugtP null kill: -16; Mtb hypoxia rep: 5; Mtb hypoxia rep growth: -1

How did CCOC(=O)C1=C(C)N=c2s/c(=C/c3cccc([N+](=O)[O-])c3O)c(=O)n2C1c1ccccc1 (configuration not stated) do in these assays?
Autofluor counter: 3193; BJeLR viability: 26; PrP UTR inh: -3

What do the screens show for `COC(=O)C1C(=O)C2=C(CC1C)NC(C)=C(C(=O)OC1CCCCC1)C2c1ccc(N(C)C)cc1` (configuration not stated)?
Autofluor counter: 9416; BJeLR viability: -5; RN4220 kill: 0.0; PrP UTR inh: -15; ugtP null kill: 8; Mtb hypoxia rep: -2; Mtb hypoxia rep growth: -3

How did COC(=O)c1c(NC(=O)CN(C)CC(=O)Nc2ccc(C)cc2)sc2c1CCC(C)C2 (configuration not stated) do in these assays?
Autofluor counter: 8065; RN4220 kill: 2.4; PrP UTR inh: -32; ugtP null kill: -5; Mtb hypoxia rep: 4; Mtb hypoxia rep growth: 2

Results for COC(=O)c1sc2ccccc2c1NC(=O)c1ccc(S(=O)(=O)N2CCC(C)CC2)cc1 ?
Autofluor counter: 6566; BJeLR viability: 5; RN4220 kill: 19; PrP UTR inh: -4; ugtP null kill: 4; Mtb hypoxia rep: 2; Mtb hypoxia rep growth: 6

Results for CC(Oc1ccccc1)c1ccnn1S(=O)(=O)c1ccccc1 (configuration not stated) ?
Autofluor counter: 4105; BJeLR viability: 0; RN4220 kill: 7.6; PrP UTR inh: 2; ugtP null kill: 9; Mtb hypoxia rep: 17; Mtb hypoxia rep growth: 1

What do the screens show for `CCOC(=O)N1CCC(Nc2nc3ccccc3n3nnnc23)CC1`?
Autofluor counter: 2578; BJeLR viability: -4; RN4220 kill: 0.7; PrP UTR inh: -6; ugtP null kill: 4

How did CCOc1ccc(CCNC(=O)c2ccc(F)c(S(=O)(=O)N3CCOCC3)c2)cc1OCC do in these assays?
Autofluor counter: 5472; BJeLR viability: -5; RN4220 kill: -0.1; PrP UTR inh: -6; ugtP null kill: 1; Mtb hypoxia rep: 7; Mtb hypoxia rep growth: 6

Looked up by structure from above:
How did CCOC(=O)C1=C(C)N=c2s/c(=C/c3cccc([N+](=O)[O-])c3O)c(=O)n2C1c1ccccc1 (configuration not stated) do in these assays?
Autofluor counter: 3193; BJeLR viability: 26; PrP UTR inh: -3

Results for CC(Oc1ccccc1)c1ccnn1S(=O)(=O)c1ccccc1 (configuration not stated) ?
Autofluor counter: 4105; BJeLR viability: 0; RN4220 kill: 7.6; PrP UTR inh: 2; ugtP null kill: 9; Mtb hypoxia rep: 17; Mtb hypoxia rep growth: 1

Results for COC(=O)c1sc2ccccc2c1NC(=O)c1ccc(S(=O)(=O)N2CCC(C)CC2)cc1 ?
Autofluor counter: 6566; BJeLR viability: 5; RN4220 kill: 19; PrP UTR inh: -4; ugtP null kill: 4; Mtb hypoxia rep: 2; Mtb hypoxia rep growth: 6

What do the screens show for `CCOC(=O)N1CCC(Nc2nc3ccccc3n3nnnc23)CC1`?
Autofluor counter: 2578; BJeLR viability: -4; RN4220 kill: 0.7; PrP UTR inh: -6; ugtP null kill: 4

The list goes on:
How did O=C1CC(N2CCCc3ccccc32)C(=O)N1c1ccccc1Cl (configuration not stated) do in these assays?
Autofluor counter: 3394; BJeLR viability: -1; RN4220 kill: 8.9; PrP UTR inh: -10; ugtP null kill: 0; Mtb hypoxia rep: 6; Mtb hypoxia rep growth: 6

How did COc1ccc(C(=O)C(O)C(c2ccc(C)cc2)N2CCOCC2)cc1OC (configuration not stated) do in these assays?
Autofluor counter: 3648; BJeLR viability: 7; RN4220 kill: 5.4; PrP UTR inh: -36; ugtP null kill: 7; Mtb hypoxia rep: 18; Mtb hypoxia rep growth: 14

How did O=C(NCCc1ccccc1)C1(S(=O)(=O)c2ccc(Cl)cc2)CC1 do in these assays?
Autofluor counter: 3983; BJeLR viability: -12; RN4220 kill: 2.6; PrP UTR inh: -8; ugtP null kill: 16; Mtb hypoxia rep: 5; Mtb hypoxia rep growth: 11

What do the screens show for `CC(Sc1nc(N)c2c3c(sc2n1)CSC(C)(C)C3)C(=O)Nc1ccccc1` (configuration not stated)?
Autofluor counter: 2522; BJeLR viability: -3; RN4220 kill: -1.6; PrP UTR inh: -2; ugtP null kill: 5; Mtb hypoxia rep: 1; Mtb hypoxia rep growth: 5

What do the screens show for `O=C(NN=Cc1ccccc1[N+](=O)[O-])c1ccc(CN2CCOCC2)cc1`?
RN4220 kill: 4.3; ugtP null kill: 3; Mtb hypoxia rep: 1; Mtb hypoxia rep growth: 1

What do the screens show for `O=c1cc(N2CCCCC2)c(-c2ccccc2)n[nH]1`?
Autofluor counter: 4052; BJeLR viability: -10; RN4220 kill: 3.5; PrP UTR inh: -31; ugtP null kill: 12; Mtb hypoxia rep: -2; Mtb hypoxia rep growth: 6

How did COc1cccc(/C(C)=N/NS(=O)(=O)c2ccc(Cl)cc2)c1 do in these assays?
Autofluor counter: 2701; BJeLR viability: 3; PrP UTR inh: -11

What do the screens show for `CN1CCN(C(=O)CSc2ccc(Cl)cc2)CC1`?
Autofluor counter: 4980; BJeLR viability: -19; RN4220 kill: 7.3; PrP UTR inh: -17; ugtP null kill: 5; Mtb hypoxia rep: 2; Mtb hypoxia rep growth: -2

What do the screens show for `CC(C)c1ccc(S(=O)(=O)c2cnc(=S)[nH]c2N)cc1`?
Autofluor counter: 3254; BJeLR viability: 0; RN4220 kill: 1.4; PrP UTR inh: -17; ugtP null kill: 11; Mtb hypoxia rep: 3; Mtb hypoxia rep growth: 4

How did COc1cccc(C(=O)Nc2ccc(NC(=O)C3CC=CCC3C(=O)O)cc2)c1 (configuration not stated) do in these assays?
Autofluor counter: 6531; BJeLR viability: 3; PrP UTR inh: -9

What do the screens show for `Cc1ccc(/C(N)=N/OC(=O)COc2ccccc2Cl)cc1`?
Autofluor counter: 2549; BJeLR viability: -1; RN4220 kill: -3.5; PrP UTR inh: -47; ugtP null kill: 74

What do the screens show for `CN(C(=O)CSC1=Nc2ccccc2C2=NC(c3ccccc3)C(=O)N12)C1CCCCC1` (configuration not stated)?
Autofluor counter: 3401; BJeLR viability: -10; RN4220 kill: 2.5; PrP UTR inh: -28; ugtP null kill: 8; Mtb hypoxia rep: 6; Mtb hypoxia rep growth: 2

What do the screens show for `CC(=O)Nc1ccc(/C(C)=N/NS(=O)(=O)c2ccccc2)cc1`?
Autofluor counter: 2042; BJeLR viability: 8; PrP UTR inh: -15

What do the screens show for `Cc1nn(-c2ccccc2)c(N)c1N=Nc1cccc(S(=O)(=O)N2CCOCC2)c1`?
Autofluor counter: 3778; BJeLR viability: 3; RN4220 kill: 3.7; PrP UTR inh: -30; ugtP null kill: 5; Mtb hypoxia rep: 1; Mtb hypoxia rep growth: 2

How did CN1CCCN(C(=O)c2ccc(Br)s2)CC1 do in these assays?
Autofluor counter: 6022; BJeLR viability: 13; RN4220 kill: -0.6; PrP UTR inh: -27; ugtP null kill: 0; Mtb hypoxia rep: -3; Mtb hypoxia rep growth: 0

Results for Cc1onc(-c2ccccc2)c1C(=O)NC(=S)NNC(=O)c1ccncc1 ?
Autofluor counter: 2590; BJeLR viability: 5; RN4220 kill: 27; PrP UTR inh: -5; ugtP null kill: 3; Mtb hypoxia rep: 2; Mtb hypoxia rep growth: 10

What do the screens show for `CN(C(=O)c1ccccc1OC1CCN(S(C)(=O)=O)CC1)C1CCOC1` (configuration not stated)?
Autofluor counter: 4534; BJeLR viability: 3; RN4220 kill: 2.9; PrP UTR inh: -28; ugtP null kill: 4; Mtb hypoxia rep: -2; Mtb hypoxia rep growth: 7

Results for Cc1cnc(C(=O)Nc2cccc(-c3nnc4n3CCCCC4)c2)cn1 ?
Autofluor counter: 2894; BJeLR viability: 4; RN4220 kill: 0.8; PrP UTR inh: 3; ugtP null kill: 5

What do the screens show for `CC(=O)Nc1ccc(S(=O)(=O)N(C)CC(=O)NNc2c(F)c(F)cc(F)c2F)cc1`?
Autofluor counter: 3638; RN4220 kill: 2.5; PrP UTR inh: -25; ugtP null kill: 6; Mtb hypoxia rep: 1; Mtb hypoxia rep growth: 1

Assay outcomes deposited in PubChem by several laboratories.
